FGF22 binding: binders of human FGF22 protein, primary screen, FGF22 synaptogenesis inhibitor project, biophysical, thermal shift, single point. AID 651658, 2012. calls only at 9.99 µM. 340,000 tested, 1.5% active. Fibroblast growth factor 22 (Homo sapiens), Q9HCT0. recombinant FGF22 thermal shift, SYPRO orange fluorescence; percent of sucrose octasulfate shift, DMSO zero;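 active = melting point raised past a set limit in the mean and every replicate; three in four hits are not shown here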
UCH37 DUB inh: inhibitors of human UCH37 deubiquitinase, primary screen, biochemical, Ub-AMC cleavage, fluorescence. Ubiquitin carboxyl-terminal hydrolase isozyme L5 (Homo sapiens), Q9Y5K5. purified proteasome/UCH37. inhibition, % (no concentration beside the values). 330,000 tested, 0.33% active. AID 588478, 2011;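 active = mean of two replicates above 20%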;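 note: 0% = compound-free wells with enzyme and 100% = wells lacking proteasome; stock transfer was 100 nL into about 20 µL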
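Signal – fluorescence, ex 355 nm, em 460 nm · System – Proteasome-bound UCH37 · Input – 0.15 nM proteasome as dispensed · Timing – 30 min preincubation with enzyme, 25 min cleavage at room temperature · Read-out basis – percent inhibition of cleavage signal versus uninhibited and no-proteasome wells · Medium – Tris-HCl pH 7.4 with ATP-MgCl2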
Ecoli growth: E. coli growth inhibition, primary screen, OD600; Escherichia coli growth, 23 h; stronger effect = lower value; 330,000 tested, 0.21% active; AID 1053175, 2014; OD600 absorbance (no concentration beside the values);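 active = OD600 absorbance below the run mean of sample wells minus 3.6 SD, in any replicate, cut at about 0.56 in these data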;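 note: stock transfer was 300 nL into about 60 µL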
Beta2AR agonist: beta2AR agonists driving receptor internalization, primary screen, cell-based, FAP fluorogen, flow cytometry; Beta-2 adrenergic receptor (Homo sapiens), P07550; Am2.2-beta2AR cells; reference of the scale not given here; response, % (no concentration beside the values); 340,000 tested, 0.43% active; AID 504454, 2011;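 active = response above a set limit, near 3 SD of response in nonfluorescent compounds, cut at about 42% in these data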;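 note: stock transfer was 100 nL into about 11 µL; a reference agonist was the positive control; negative values mostly stem from fluorescent compounds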
Target sequence (P07550 whole entry, looked up): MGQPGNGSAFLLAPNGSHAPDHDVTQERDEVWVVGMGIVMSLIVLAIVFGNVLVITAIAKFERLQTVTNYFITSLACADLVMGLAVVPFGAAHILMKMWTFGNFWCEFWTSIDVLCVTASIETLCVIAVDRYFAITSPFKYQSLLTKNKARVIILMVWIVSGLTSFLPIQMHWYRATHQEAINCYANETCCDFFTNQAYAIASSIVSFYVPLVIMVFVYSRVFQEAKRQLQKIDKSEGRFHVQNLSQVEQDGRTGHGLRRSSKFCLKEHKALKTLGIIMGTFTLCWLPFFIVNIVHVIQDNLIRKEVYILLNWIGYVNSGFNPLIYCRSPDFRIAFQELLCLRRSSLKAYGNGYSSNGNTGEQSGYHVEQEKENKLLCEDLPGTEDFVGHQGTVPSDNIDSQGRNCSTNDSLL
LANA-H2A inh: blockers of LANA interaction with H2A/H2B – biochemical, FP readout, HTS, primary screen. inhibition, % (no concentration beside the values). Protein LANA1 (Human herpesvirus 8 type P (isolate GK18)), Q9QR71. 320,000 tested, 0.6% active. cell-free LANA-H2A/H2B peptide, fluorescence polarization. AID 2629, 2010; in the data active = inhibition mostly above about 10%, no sharp cut-off; inactive = mostly below about 6.7%;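 note: stock transfer was 7.5 nL into about 10 µL; 0% = median of vehicle wells and 100% = median of positive control wells; one replicate is shown; the record names a cut of 25% in any replicate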
ALR H2O2 inh: inhibitors of human ALR sulfhydryl oxidase, primary screen, biochemical, H2O2 detection, HRP-luminol luminescence, single point; purified ALR, DTT oxidation; inhibition, % (concentration not given with the values); 290,000 tested, 3.8% active; FAD-linked sulfhydryl oxidase ALR (Homo sapiens), P55789;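 active = mean and each replicate at 75% or more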;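 note: stock transfer was 7.5 nL into about 7.5 µL; 0% = neutral wells and 100% = wells with inactivated enzyme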
Target sequence (P55789 whole entry, looked up): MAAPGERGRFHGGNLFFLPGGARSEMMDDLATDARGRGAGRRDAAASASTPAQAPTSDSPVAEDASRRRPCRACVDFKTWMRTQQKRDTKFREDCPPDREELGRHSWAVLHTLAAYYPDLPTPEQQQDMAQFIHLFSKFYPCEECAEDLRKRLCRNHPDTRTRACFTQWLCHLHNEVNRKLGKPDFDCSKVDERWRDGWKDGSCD
HNF4A DNA FP: change in binding of human HNF4A to DNA, primary screen, biochemical, fluorescence polarization, FITC-DNA | Hepatocyte nuclear factor 4-alpha (Homo sapiens), P41235 | 1 h | activity change, % at 10 µM | 360,000 tested, 0.3% active; in the data active = activity change above about 30%, passing the limit was not always enough;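 note: controls were the assay level and a saturating level of protein; the project sought stronger binding though the title names inhibitors; some compounds called inactive have numbers as strong as hits; positive values seem to mean higher polarization but the record does not say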
Target sequence (P41235 whole entry, looked up): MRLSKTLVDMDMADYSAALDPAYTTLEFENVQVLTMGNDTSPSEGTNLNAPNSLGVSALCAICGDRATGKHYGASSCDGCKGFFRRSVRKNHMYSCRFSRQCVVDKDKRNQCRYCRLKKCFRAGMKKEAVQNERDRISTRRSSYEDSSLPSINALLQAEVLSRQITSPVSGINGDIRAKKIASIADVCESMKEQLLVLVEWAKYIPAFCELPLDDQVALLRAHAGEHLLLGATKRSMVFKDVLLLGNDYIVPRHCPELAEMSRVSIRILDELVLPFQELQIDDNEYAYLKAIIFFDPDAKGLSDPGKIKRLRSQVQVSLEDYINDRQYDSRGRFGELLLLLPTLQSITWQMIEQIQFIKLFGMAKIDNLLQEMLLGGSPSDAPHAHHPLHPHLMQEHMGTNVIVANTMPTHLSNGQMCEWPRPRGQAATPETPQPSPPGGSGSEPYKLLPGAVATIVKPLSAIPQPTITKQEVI
Starred values were filed as active, the others as inactive; i = inactive; · = no result given.

SMILES	FGF22 binding	UCH37 DUB inh	Ecoli growth	Beta2AR agonist	LANA-H2A inh	ALR H2O2 inh	HNF4A DNA FP
CCCOc1ccc(Cc2c(Cl)nc(SC)nc2OC)cc1	i	5.6	0.72	2	-1.1	·	0.1
O=C1CCC(=O)N1c1ccc(CSc2nnnn2C2CCCCC2)cc1	·	3.6	0.65	0	-4.2	32	0.4
C=CCNC(=S)N1CCN(c2ncc(C(F)(F)F)cc2Cl)CC1	i	2.5	0.63	-12	-4.4	4	0.1
CCc1ccc2[nH]c(=O)c(CN(CCN(CC)CC)C(=O)Nc3ccccc3OC)cc2c1	·	-1.8	0.76	-3	4.2	1	0.3
CC(C)(C)NC(=O)CSc1nncn1NCc1cccc2ccccc12	·	-1.1	0.7	1	-6.8	4	-2.3
Cc1ccccc1OC1C(=O)N(Cc2ccc3c(c2)OCO3)C1c1sccc1C (stereo unspecified)	·	1.3	0.77	10	-3.8	-7	-3.3
O=C(c1cc2n(n1)C(C(F)(F)F)CC(c1ccco1)N2)N1CCc2ccccc2C1 (stereo unspecified)	·	-0.6	0.76	-5	4.5	24	4.7
Cc1cc(/C=N/n2cnnc2)c(C)n1-c1ccc(OCc2ccccc2F)cc1	i	·	·	0	0.1	-5	6.1
O=C(O)c1nn(CCOc2cccc(Cl)c2)c(=O)c2ccccc12	i	3.9	0.69	-2	-5.9	-7	2.0
CN(CC(=O)Nc1ccccc1F)CC(=O)Nc1ccc(F)c(F)c1F	i	0.7	0.69	5	3.8	-16	0.9
Cc1ccc(S(=O)(=O)N2CCN(C(=O)CN3CCCC3)C2)cc1	·	0.1	0.69	1	-0.6	-5	-3.2
C=CCSc1nc2c(cc1C#N)CCC2	·	0.9	0.71	-3	3.3	-10	3.2
CCOC(=O)c1c(NC(=O)CSc2nnc(CNc3ccc(Cl)cc3)o2)sc(C)c1C	·	3.3	0.72	0	-4.6	84*	-3.1
COc1ccc(S(=O)(=O)N2CCN(C(=O)NCc3ccccc3)CC2)cc1	·	3.7	0.71	2	-1.6	0	-2.2
COc1ccc(/C=N/NC(=O)C2C3CCCCC32C)cc1OC (stereo unspecified)	i	·	·	12	-5.0	-4	-0.2
Cc1ccc(-c2noc(-c3c(C)noc3C)n2)cc1	i	2.2	0.62	1	3.1	-12	-4.0
CCOC(=O)C(CCCOc1ccc(C)cc1)C(=O)OCC	·	-0.8	0.74	1	4.9	3	4.4
CCCCNC(=S)NNC(=O)c1sccc1C	i	3.3	0.73	0	6.3	45	-2.0
COC(=O)c1c(NC(=O)CN2C(=O)NC3(CCc4ccccc4C3)C2=O)sc2c1CCCCC2 (stereo unspecified)	i	-2.4	0.69	-3	-3.3	-7	-2.9
CC1CCCC(C)N1C(=O)COC(=O)c1n[nH]c(=O)c2ccccc12 (stereo unspecified)	i	-1.1	0.7	-9	-0.4	2	-0.1
Cc1ccc(S(=O)(=O)n2nc(C)c(Br)c2C)c(C)c1C	·	1.2	0.74	4	-2.3	25	-1.3
Cc1csc(SCC(=O)Nc2ccccc2C)n1	i	2.8	0.67	-1	4.4	-1	0.7
CCNCC(=O)N1c2ccccc2CCc2ccc(NC(C)=O)cc21	·	2.9	0.67	-4	-5.4	-5	2.2
CCOc1ccc(CNCCCSc2ncccn2)cc1	i	4.3	0.69	3	-3.3	-14	1.8
CCOP(=O)(c1ccc(N(C)C)cc1)C(O)c1ccccc1 (stereo unspecified)	·	6.5	0.67	3	6.9	13	10

Next records.
SMILES	FGF22 binding	UCH37 DUB inh	Ecoli growth	Beta2AR agonist	LANA-H2A inh	ALR H2O2 inh	HNF4A DNA FP
CCCCn1c(C2CCCCC2)nc2cc3[nH]c(=O)c(C(C)C)nc3cc21	i	-25	0.69	0	2.8	-19	13
Cc1ccc(C(=O)n2nc(-c3ccco3)nc2N)cc1	·	-0.8	0.76	-4	-3.7	6	-0.8
CCOC(=O)c1c(NC(=O)C2CCN(S(=O)(=O)c3cccs3)CC2)sc(C)c1C	·	3.3	0.78	0	0.3	-3	2.1
c1ccc(-c2nc(-c3cccnc3)cs2)cc1	i	4.9	0.6	-3	5.2	-1	1.3
CCN(C(=O)COC(=O)CCC(=O)c1cccs1)c1ccccc1	i	-0.4	0.64	-1	-2.6	2	0.6
COc1ccccc1CNC(=O)C1CCC(CNS(=O)(=O)c2ccccc2)CC1 (stereo unspecified)	i	4.4	0.69	0	9.8	·	1.0
CC(C)C[C@@H](C(=O)NCC1CCCO1)N1C(=O)N2CCc3c([nH]c4ccccc34)[C@@]2(C)C1=O (stereo partly specified)	i	2.2	0.68	-1	4.1	0	1.9
CC1(C)CC(=O)C2=C(C1)OC(N)=C([N+](=O)[O-])C2c1ccc(C#N)s1 (stereo unspecified)	·	5.9	0.67	9	3.1	-24	0.7
O=[N+]([O-])c1ccc2c(c1)C(N1CCOCC1)/C(=C/COc1ccc3ccccc3c1Br)O2 (stereo unspecified)	·	-1.8	0.81	-5	-1.2	-13	-0.9
Nc1cc2c(cc1C(=O)c1ccccc1)OCCO2	·	0.2	0.72	-18	-5.2	98*	1.5
COc1ccc(NC(=O)[C@@H](NC(=O)N2C[C@H]3C[C@@H](C2)c2cccc(=O)n2C3)C(C)C)cc1OC	i	-0.6	0.77	-2	-6.3	-19	5.2
CCN(CCCCCCN)c1ccc2c(=O)[nH][nH]c(=O)c2c1	i	-14	0.69	-2	-5.2	0	3.6
COc1ccc(CSCC(=O)NN=C2CCN(C)CC2)cc1	·	2.0	0.68	4	3.4	6	4.3
Cc1cc(Cl)c(S(=O)(=O)N2CCN(c3ccccc3)CC2)cc1OCC(N)=O	·	0.8	0.71	5	-0.6	17	1.5
CSc1cc(-c2ccc(Cl)cc2)c(C(=O)N2CCCC2)s1	·	0.7	0.73	-17	4.0	-8	4.9
Cc1ccc(C)c(Cn2nnc3c(=O)[nH]c(C4CCN(S(=O)(=O)c5ccc(S(=O)(=O)N(C)C)cc5)CC4)nc32)c1	i	3.2	0.7	4	-5.3	3	-7.0
CCOC(=O)c1c(C)n(OC)c2ccc3c(no[n+]3[O-])c12	·	2.5	0.68	6	-4.8	6	0.0
O=C(O)C(=O)/C(=C\c1ccc([N+](=O)[O-])cc1)c1ccc2ccccc2n1	·	7.2	0.69	8	2.7	·	17
O=C(NCCCN1CCCCC1)c1ccc2c(c1)ncn2C1CCCC1	i	0.1	0.66	1	6.9	2	4.3
COc1ccc2oc(C(=O)OCC(=O)N3CC(C)OC(C)C3)c(C)c2c1 (stereo unspecified)	i	-105	0.67	6	-2.6	-15	3.3
CCOC(=O)/C(C(=O)Nc1ccc(Cl)cc1Cl)=C1/NC(C)(C)Cc2ccccc21	·	8.2	0.66	·	3.9	-1	·
CCCCCCCCNS(=O)(=O)CCNCc1ccccc1	i	·	·	-6	·	·	0.4
Cc1nn(CC(=O)Nc2ccc(Cl)c(S(=O)(=O)N(C)C)c2)c(C)c1[N+](=O)[O-]	·	1.0	0.64	-13	2.3	-5	0.9
COc1ccc(-c2nc(CS(=O)CC(=O)NCc3ccc4c(c3)OCO4)c(C)o2)cc1OC (stereo unspecified)	i	2.6	0.63	6	-3.4	99*	7.8
Nc1ncnc2c1cnn2-c1ccccc1	·	4.0	0.65	4	-4.4	-4	2.1

In the list so far, 2 have a CF3 group.
SMILES	FGF22 binding	UCH37 DUB inh	Ecoli growth	Beta2AR agonist	LANA-H2A inh	ALR H2O2 inh	HNF4A DNA FP
C=CCNC(=S)N1CCN(c2ncc(C(F)(F)F)cc2Cl)CC1	i	2.5	0.63	-12	-4.4	4	0.1
O=C(c1cc2n(n1)C(C(F)(F)F)CC(c1ccco1)N2)N1CCc2ccccc2C1 (stereo unspecified)	·	-0.6	0.76	-5	4.5	24	4.7

(listing goes on)
SMILES	FGF22 binding	UCH37 DUB inh	Ecoli growth	Beta2AR agonist	LANA-H2A inh	ALR H2O2 inh	HNF4A DNA FP
COc1ccc(-c2[nH]c(-c3ccccc3)nc2SCC(=O)Nc2nccs2)cc1	i	1.0	0.73	2	-0.2	98*	-1.2
COc1ccc2c(C)cc(SCC(=O)Nc3cc(C(N)=O)cc(C(N)=O)c3)nc2c1	i	-49	0.67	22	1.4	4	5.7
CCCCN(CC)CCNC(=O)c1nn(-c2ccc(OC)cc2)c(=O)c2c1c1ccccc1n2C	i	-11	0.68	5	-3.8	-4	0.8
O=C1C(Cl)=C(N2CCOCC2)C(=O)N1c1ccccc1F	i	4.8	0.69	4	16	9	-2.5
COc1ccc(CC(=O)N/N=C(\C)CC(=O)Nc2ccc(N(C)C)cc2)cc1OC	i	·	·	0	7.0	·	-2.0
Cn1nc(C(=O)NCCCN2CCCCC2)c2c1-c1ccccc1SC2	i	-0.4	0.73	-2	1.1	39	-1.5
CC(C)c1ccccc1OCC(=O)Nc1ccccc1C(=O)N1CCOCC1	i	2.5	0.71	5	-0.5	3	4.3
COc1ccc(CCN(C)C2CCCN(S(C)(=O)=O)C2)cc1OC (stereo unspecified)	i	1.2	0.65	4	0.3	·	-4.3
CCn1c(SCc2cc(=O)[nH]c3ccccc23)nc2c1c(=O)n(C)c(=O)n2C	·	4.6	0.65	-8	6.2	·	-0.3
Cc1[nH]nc2c1C(c1cccc(O)c1)C1=C(CC(C)(C)CC1=O)N2 (stereo unspecified)	·	-52	0.69	-8	-4.1	39	0.1
O=C(Nc1ccc(S(=O)(=O)N2CCCCC2)cc1)C1CCCN(C(=O)c2ccc(Cl)cc2)C1 (stereo unspecified)	·	-0.4	0.71	0	-0.1	-8	0.5
Cc1cc([N+](=O)[O-])nn1Cn1nc([N+](=O)[O-])cc1C	i	0.0	0.65	0	-2.1	-3	-1.4
O=c1c(-n2cncn2)c[nH]n1-c1cccc(Cl)n1	i	1.9	0.66	3	2.1	19	-1.3
O=C(O)c1[nH]c2ccccc2c1NS(=O)(=O)Cc1ccccc1	·	-22	0.65	2	3.3	99*	-1.1
COc1ccc(CCNC(=O)CCc2ccc(S(=O)(=O)NCC(C)C)cc2)cc1OC	i	4.3	0.68	14	2.4	-9	-1.3
CN(C)S(=O)(=O)c1ccc(C(=O)NCC[N+]2(C)CCCCCC2)o1	i	2.1	0.69	-1	1.5	5	0.9
CCOC(=O)N1CCC(NC(=O)c2ccc3c(c2)N(C)C(=O)/C(=C/c2cccc(OC)c2)S3)CC1	i	-14	0.7	28	0.5	-1	-2.1
COc1cccc(-c2ccc(NC(=O)C3CCCN(Cc4cnn(C)c4)C3)cc2)c1 (stereo unspecified)	i	2.5	0.69	10	-2.2	-4	0.7
Cc1nn(-c2ccccn2)c(C)c1Oc1ccccc1O	·	4.6	0.7	-8	-3.1	43	0.8
O=C(CCS(=O)(=O)c1ccccc1)Nc1nnc(-c2ccco2)o1	i	4.4	0.69	0	-7.5	10	0.7
COc1ccc(C(=O)NCC(=O)OCc2ccc(Cl)cc2Cl)cc1OC	i	1.3	0.69	-1	·	·	0.1
COc1ccc(C(=O)NCc2n[nH]c(=S)n2-c2ccccc2)cc1OC	·	-0.1	0.68	1	0.4	69	1.8
O=C(Nc1ccc(N2CCOCC2)cc1)c1cc2c(s1)CCCC2	i	1.8	0.64	24	-3.6	0	2.7
CC(=O)Nc1ccc(-c2cc(NC(C)=O)n(-c3ccccc3)n2)cc1	·	2.6	0.76	-14	1.2	-7	-1.4
Fc1ccc(CSc2nc3ncc(Br)cc3[nH]2)cc1	·	2.6	0.75	1	3.8	-6	-10
CC(C)CC(=O)NC(=S)NNC(=O)c1ccc([N+](=O)[O-])cc1	·	5.3	0.63	-2	0.9	10	0.6
Cc1ccc(NS(=O)(=O)c2ccc(Br)s2)nc1	i	2.5	0.67	-3	0.8	-11	7.6

A portion of the library; rates above refer to the full screens.
